# Vaccinia stage: Vaccinia orthopox stage-specific inhibition; activity change (mCherry), % (no concentration beside the values); 89,000 compounds, 0.01% hits; Vaccinia-infected cells, mCherry/Venus stage reporter fluorescence; hits give low values; some inactives read as strong as hits;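 active means mCherry past -33% and 40 or more points under the early reporter, replicates agreeing; inconclusive means past -33% without that gap or agreement; tested in A549 cells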;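 further: scaled between vehicle wells and reference inhibitor wells; 23 nL library stock went into each well; one replicate is shown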
# Vaccinia stage Venus: further read-out of Vaccinia stage, marked with its call; activity change (Venus), %; measured here: Venus reporter, other viral stage;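 negative = less Venus signal; first of two replicates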
# An asterisk follows results filed as active; ? = inconclusive; / = no result given; & = joins results of further samples. Not all compounds are listed; rates above refer to the full screens.
molecule,Vaccinia stage,Vaccinia stage Venus
CO[C@@H]1CN(C)C(=O)c2ccc(NC(=O)C3CCCC3)cc2OC[C@H](C)N(CCC(F)(F)F)C[C@@H]1C,0,7
COCC#Cc1ccc2c(c1)O[C@@H](CN(C)S(=O)(=O)c1ccc(OC)cc1)[C@H](C)CN([C@H](C)CO)S2(=O)=O,7,-9
C[C@H]1CN([C@@H](C)CO)C(=O)c2cc(NS(=O)(=O)c3ccc(F)cc3)ccc2O[C@H]1CN(C)Cc1ccncc1,11,13
COc1ccc(S(=O)(=O)N(C)C[C@@H]2Oc3ccc(NC(=O)CCN4CCOCC4)cc3C(=O)N([C@H](C)CO)C[C@H]2C)cc1,11,4
COc1cccc(NC(=O)N2CC(=O)N3[C@H](C2)[C@H](c2ccc(Br)cc2)[C@@H]3CO)c1,-16,-8
O=C(c1ccccc1F)N1CC2(C1)[C@H](c1ccccc1)[C@H](CO)N2CC1CC1,10,10
CCCC(O)C#Cc1cnc2c(c1)C(=O)N([C@H](C)CO)C[C@H](C)[C@H](CN(C)S(=O)(=O)c1cccs1)O2 (stereo partly drawn),11&10,5&9
Cc1cccc(-c2ccc([C@H]3[C@H]4CN(S(=O)(=O)c5cccc(C)c5)CCCCN4[C@H]3CO)cc2)c1,?,/
CC(C)(C)[S@@](=O)N1Cc2cc(C(=O)NCCN3CCCCC3)nc(-c3cccc(-c4cccc(C#N)c4)c3)c2[C@H]1CCO,?,/
Cc1ccc(S(=O)(=O)N[C@H]2CC[C@H](CCNC(=O)C3CCOCC3)O[C@H]2CO)cc1,2,3
C[C@H](CO)N1C[C@H](C)[C@H](CN(C)Cc2cccc(C(=O)O)c2)Oc2ncc(/C=C/c3ccccc3)cc2C1=O,12,14
O=C(c1ccc(F)cc1)N1CC(=O)N2[C@H](CO)[C@@H](c3ccc(C4=CCCC4)cc3)[C@@H]2C1,4,8
C[C@H]1CN([C@@H](C)CO)C(=O)Cc2cc(NC(=O)Cc3cn(C)c4ccccc34)ccc2O[C@@H]1CN(C)Cc1ccc(-c2ccccc2)cc1,6,12
C[C@@H](NC(=O)C[C@H]1CC[C@H](NC(=O)Nc2ccc3c(c2)OCO3)[C@@H](CO)O1)c1ccccc1,4,11
O=C1O[C@@H](c2ccccc2)[C@@H](c2ccccc2)N2[C@@H](c3ccccc3OCCO)[C@]3(C(=O)Nc4ccccc43)[C@@H](C(=O)N3CCN(c4ncccn4)CC3)[C@H]12,?,/

# Next section:
molecule,Vaccinia stage,Vaccinia stage Venus
C[C@@H]1CCCCO[C@@H](CN(C)S(=O)(=O)c2ccc(F)cc2)[C@H](C)CN([C@@H](C)CO)C(=O)c2cc(NC(=O)c3ccccc3)ccc2O1,?,/
COCCNC(=O)C[C@@H]1C[C@@H]2c3cc(NC(=O)C4CCC4)ccc3O[C@@H]2[C@H](CO)O1,1,4
CC(C)C#Cc1ccc([C@@H]2[C@H](C#N)N(C(=O)c3cccc(F)c3)[C@H]2CO)cc1,?,/
Cc1noc(C)c1S(=O)(=O)Nc1ccc2c(c1)C(=O)N([C@@H](C)CO)C[C@H](C)[C@@H](CN(C)S(=O)(=O)c1cn(C)cn1)O2,9,14
O=C(Nc1ccc2c(c1)[C@H]1C[C@H](CC(=O)N3CCc4ccccc4C3)O[C@H](CO)[C@H]1O2)C1CCC1,-2,1
C[C@@H]1CN([C@H](C)CO)S(=O)(=O)c2ccc(-c3cccc(F)c3)cc2O[C@H]1CN(C)C(=O)Nc1cc(F)ccc1F,?,/
O=C(Nc1ccccc1F)N1CCCCN2[C@H](CO)[C@@H](c3ccc(C#Cc4cccnc4)cc3)[C@@H]2C1,-28,-16
COCC(=O)Nc1ccc2c(c1)OC[C@@H](C)NC[C@@H](C)[C@H](OC)CN(C)C2=O,-5,-1
CC(=O)N(C)C[C@@H]1Oc2ncc(-c3ccc(C#N)cc3)cc2C(=O)N([C@H](C)CO)C[C@@H]1C,17,10
O=C(Nc1ccc(F)cc1)N1C[C@@H]2N[C@H](C1)C2c1ccc(-c2cccnc2)cc1 (stereo partly drawn),?,-5
Cc1noc(C)c1NC(=O)NCC[C@@H]1CC[C@H](NC(=O)c2ccccc2)[C@@H](CO)O1,4,1
CCC(=O)N(C)C[C@@H]1Oc2cc(-c3ccccc3)ccc2S(=O)(=O)N([C@@H](C)CO)C[C@H]1C,3,-4
O=C(NCCN1CCCCC1)[C@H]1[C@H](CO)[C@H]2Cn3c(cccc3=O)[C@H]2N1Cc1ccccn1,12,6
C[C@H]1CN([C@@H](C)CO)C(=O)CCCn2nncc2CO[C@H]1CN(C)Cc1cccc(O)c1,15,10
COc1ccccc1S(=O)(=O)N[C@H]1CC[C@H](CC(=O)N2CCN(C)CC2)O[C@H]1CO,4,20

# The listing continues.
molecule,Vaccinia stage,Vaccinia stage Venus
CC(C)CC#Cc1ccc2c(c1)O[C@H](CN(C)C(=O)c1ccncc1)[C@@H](C)CN([C@@H](C)CO)S2(=O)=O,-22,-19
C[C@@H]1CCCCO[C@H](CN(C)Cc2ccc3c(c2)OCO3)[C@H](C)CN([C@@H](C)CO)C(=O)c2cc(NC(=O)CCC(F)(F)F)ccc2O1,?,/
O=C(C[C@@H]1CC[C@H]2[C@@H](COC[C@@H](O)CN2Cc2ccccc2)O1)NCCc1ccccc1,-15,-5
C[C@@H]1CN([C@H](C)CO)C(=O)c2cc(NS(=O)(=O)c3cccs3)ccc2O[C@@H](C)CCCCO[C@@H]1CN(C)C(=O)C1CCCCC1,-23,-7
C[C@H](NC(=O)[C@H]1[C@H](CO)[C@H]2Cn3c(cccc3=O)[C@@H]1N2Cc1ccncc1)c1ccccc1,22,10
C[C@@H]1CN([C@@H](C)CO)C(=O)c2cc(C#Cc3ccccc3)cnc2O[C@H]1CN(C)Cc1ccccn1,-8,-2
Cc1ccc(S(=O)(=O)N(C)C[C@H]2OCCCC[C@H](C)Oc3ccc(NS(C)(=O)=O)cc3C(=O)N([C@H](C)CO)C[C@H]2C)cc1,16,9
CC(=O)N1CC[C@@H]2[C@H]1c1cc(-c3ccccc3)ccc1N[C@@H]2CO,9,-5
CNC[C@H]1Oc2ccc(NS(=O)(=O)c3c(C)noc3C)cc2C(=O)N([C@@H](C)CO)C[C@@H]1C,30,13
Cc1ccc(S(=O)(=O)Nc2cccc3c2O[C@@H](CN(C)Cc2ccc(C(=O)O)cc2)[C@H](C)CN([C@H](C)CO)C3=O)cc1,13,12
COc1ccc(NC(=O)Nc2ccc3c(c2)CC(=O)N([C@H](C)CO)C[C@H](C)[C@@H](CN(C)Cc2ccc(C(=O)Nc4ccccc4N)cc2)O3)cc1,0,-3
C[C@H]1CN([C@@H](C)CO)C(=O)c2cc(-c3ccc(F)cc3)cnc2O[C@H]1CN(C)Cc1cccnc1,-9,-3
CO[C@@H]1CN(C)C(=O)c2cc(NC(=O)C3CC3)ccc2OC[C@@H](C)N(Cc2nccs2)C[C@H]1C,-7,-17
COCC(=O)Nc1ccc2c(c1)OC[C@@H](C)N(C(=O)Cc1cccnc1)C[C@@H](C)[C@@H](OC)CN(C)C2=O,6,11
COc1ccc(-c2ccc3c(c2)O[C@H](CN(C)C(=O)Nc2ccccc2F)[C@@H](C)CN([C@H](C)CO)S3(=O)=O)cc1,-25,-16

# Later entries
molecule,Vaccinia stage,Vaccinia stage Venus
COc1ccccc1C(=O)Nc1ccc2c(c1)C(=O)N(C)[C@H]1CC[C@@H](CC(=O)NCCc3ccncc3)O[C@H]1CO2,6,9
C[C@@H]1CN([C@H](C)CO)C(=O)c2cc(NC(=O)C3CCCCC3)ccc2O[C@@H]1CN(C)CC1CCCCC1,-5,0
CCC(=O)N[C@H]1C=C[C@@H](CC(=O)NCC2CC2)O[C@@H]1CO,7,3
COCC(=O)N1C[C@H](C)[C@@H](OC)CN(C)C(=O)c2cc(NS(C)(=O)=O)ccc2OC[C@H]1C,12,11
COc1ccc(NC(=O)Nc2ccc3c(c2)[C@@H]2C[C@H](CC(=O)O)O[C@@H](CO)[C@@H]2O3)cc1,10,10
CN(C)C(=O)c1ccc(-c2ccc([C@@H]3[C@@H](CO)N(C(=O)C4CC4)[C@H]3C#N)cc2)cc1,-6,6
COc1ccc(NC(=O)N[C@H]2C=C[C@@H](CC(=O)NCc3ccccn3)O[C@@H]2CO)cc1,-5,2
O=C(C[C@@H]1CC[C@H]2[C@@H](COC[C@H](O)CN2CCc2ccccc2)O1)NCCCN1CCOCC1,10,4
Cc1noc(C)c1S(=O)(=O)N(C)C[C@@H]1Oc2ccc(NS(=O)(=O)c3ccccc3)cc2CC(=O)N([C@H](C)CO)C[C@H]1C,4,5
COc1ccccc1CNC(=O)C[C@@H]1C=C[C@@H](NC(C)=O)[C@H](CO)O1,-3,6
Cc1ccc(S(=O)(=O)Nc2ccc3c(c2)C(=O)N([C@@H](C)CO)C[C@@H](C)[C@@H](CN(C)Cc2ccc4c(c2)OCO4)OCCCC[C@@H](C)O3)cc1,?,/
C[C@H]1CN([C@@H](C)CO)S(=O)(=O)c2ccc(C3=CCCCC3)cc2O[C@@H]1CN(C)C(=O)c1ccc(F)cc1,?,/
C[C@@H]1CCCCO[C@@H](CN(C)S(=O)(=O)c2ccc(Cl)cc2)[C@@H](C)CN([C@@H](C)CO)C(=O)c2cc(NS(=O)(=O)c3cccs3)ccc2O1,5,1
COCC#Cc1cnc2c(c1)C(=O)N([C@H](C)CO)C[C@@H](C)[C@@H](CN(C)Cc1ccc(F)cc1)O2,19,9
COCC(=O)N(C)C[C@@H]1Oc2cc(-c3ccncc3)ccc2S(=O)(=O)N([C@@H](C)CO)C[C@@H]1C,22,8

# (further entries)
molecule,Vaccinia stage,Vaccinia stage Venus
C[C@@H]1CN([C@@H](C)CO)C(=O)Cc2cc(NC(=O)Cc3ccccc3)ccc2O[C@@H]1CN(C)CC1CCCCC1,-12,-7
N#C[C@@H]1[C@@H](c2ccccc2C2=CCCC2)[C@@H](CO)N1C(=O)NC1CCCCC1,-27,-11
COc1ccc(NC(=O)N2CCCCN3[C@H](CO)[C@H](c4ccc(C#CCC(C)C)cc4)[C@H]3C2)cc1,?,/
COCC#Cc1ccc2c(c1)O[C@@H](CN(C)C(=O)c1ccccc1F)[C@@H](C)CN([C@H](C)CO)S2(=O)=O,2,1
O=C(C[C@@H]1C=C[C@H](NC(=O)c2ccncc2)[C@H](CO)O1)NCCc1ccncc1,13,4
COc1ccc(S(=O)(=O)N(C)C[C@H]2Oc3c(NC(=O)c4ccncc4)cccc3C(=O)N([C@@H](C)CO)C[C@H]2C)cc1,-1,3
COc1ccccc1CNC(=O)C[C@H]1CC[C@@H]2[C@H](COC[C@H](O)CN2Cc2ccccc2)O1,1,1
CCC(=O)N[C@H]1CC[C@H](CC(=O)NCc2cc(F)cc(F)c2)O[C@H]1CO,3,3
CC(C)CC#Cc1cnc2c(c1)C(=O)N([C@@H](C)CO)C[C@@H](C)[C@@H](CN(C)Cc1ccc(F)cc1)O2,?,/
Cc1ccc(S(=O)(=O)Nc2ccc3c(c2)C(=O)N([C@H](C)CO)C[C@@H](C)[C@@H](CN(C)S(=O)(=O)c2ccc(Cl)cc2)O3)cc1,-12,-4
COc1ccc2c3c(n(C)c2c1)[C@@H](CO)N(Cc1ccccc1F)CC31CN(C(=O)C2CC2)C1,10,8
CN1C(=O)c2cc(NC(=O)c3ccc(C(F)(F)F)cc3)ccc2OC[C@@H]2O[C@H](CC(=O)O)CC[C@H]21,-2,-2
COc1ccc(NC(=O)Nc2ccc3c(c2)C(=O)N([C@H](C)CO)C[C@H](C)[C@H](CN(C)C(=O)NC(C)C)OCCCC[C@H](C)O3)cc1,6,6
C[C@H]1CN([C@@H](C)CO)C(=O)Cc2cc(NC(=O)Nc3cccc4ccccc34)ccc2O[C@@H]1CN(C)C(=O)Nc1ccc2c(c1)OCO2,9,13
C[C@@H]1CCCCO[C@@H](CN(C)C(=O)CCC(F)(F)F)[C@H](C)CN([C@H](C)CO)C(=O)c2cc(NC(=O)C3CCCCC3)ccc2O1,-18,-10

# Four compounds picked at random from the list so far:
molecule,Vaccinia stage,Vaccinia stage Venus
COc1ccccc1CNC(=O)C[C@H]1CC[C@@H]2[C@H](COC[C@H](O)CN2Cc2ccccc2)O1,1,1
C[C@H]1CN([C@@H](C)CO)C(=O)Cc2cc(NC(=O)Nc3cccc4ccccc34)ccc2O[C@@H]1CN(C)C(=O)Nc1ccc2c(c1)OCO2,9,13
COc1ccc2c3c(n(C)c2c1)[C@@H](CO)N(Cc1ccccc1F)CC31CN(C(=O)C2CC2)C1,10,8
C[C@@H]1CN([C@@H](C)CO)C(=O)Cc2cc(NC(=O)Cc3ccccc3)ccc2O[C@@H]1CN(C)CC1CCCCC1,-12,-7

# Record cards (already shown):
# C[C@H]1CN([C@@H](C)CO)C(=O)Cc2cc(NC(=O)Nc3cccc4ccccc34)ccc2O[C@@H]1CN(C)C(=O)Nc1ccc2c(c1)OCO2 as listed: Vaccinia stage: 9; Vaccinia stage Venus: 13
# O=C(C[C@@H]1C=C[C@H](NC(=O)c2ccncc2)[C@H](CO)O1)NCCc1ccncc1 as listed: Vaccinia stage: 13; Vaccinia stage Venus: 4

# Continued.
molecule,Vaccinia stage,Vaccinia stage Venus
CO[C@H]1CN(C)C(=O)c2cc(NC(=O)Cc3ccccc3)ccc2OC[C@H](C)N(C)C[C@@H]1C,4,5
O=C(C1=C[C@H](c2ccccc2)C[C@H](OCc2ccc(CO)cc2)O1)N1CCN(Cc2ccc3c(c2)OCO3)CC1,-28&-23,-10&-17
CC(=O)N(C)C[C@@H]1Oc2cc(C#C[C@@H](C)O)ccc2S(=O)(=O)N([C@H](C)CO)C[C@H]1C,18,14
CC(C)NC(=O)Nc1ccc2c(c1)C(=O)N(C)[C@@H]1CC[C@H](CC(=O)NCc3ccc(F)cc3)O[C@@H]1CO2,1,1

# Source: PubChem BioAssay
